YopH inh = YopH (Yersinia) phosphatase inhibition | fluorescence Ex485/Em525 | inhibition, %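 (about 10 µM by stock and volumes)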 | hit rate 0.16% among 140,000;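 active = inhibition of 50% or more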;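 note: controls were vehicle for no effect and minimum signal wells for full effect; inactives centre near -20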
Mtb growth = M. tuberculosis H37Rv growth inhibitors, H37Rv strain (AID 1626); M. tuberculosis H37Rv growth inhibition; higher % means a stronger effect; inhibition, % at 10 µM; hits with a dose series show IC50 in µM; hit rate 0.95% among 220,000;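 active = confirmed in a dose series; inconclusive = inhibition above 80% but not taken into the dose series; inactive = below 80% or under 30% at every dose of the series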;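 note: bacteria incubated seven days before Alamar blue readout; 0% = bacteria only wells and 100% = bacteria with antibiotic wells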
Mtb betalactam = beta-lactam sensitization of Mtb H37Rv | M. tuberculosis H37Rv growth with meropenem, percent inhibition; hits of this screen are not shown here | inhibition, % at 25 µM | hit rate 0.27% among 330,000 | AID 434955;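 active = about 74% or more and at least 40 points above the plate without the antibiotic, then above 30% in a dose series; inconclusive = first-round hits that could not be retested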;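 note: growth measured after seven days incubation then overnight dye step; 0% = bacteria only wells and 100% = bacteria with antibiotic; twin plates without the antibiotic show which effects depend on it; some results filed as inactive read as strong as hits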
RecA intein inh = inhibitors of M. tuberculosis RecA intein splicing; hit rate 0.75% among 290,000; AID 2221; cell-free RecA intein splicing, fluorescence; inhibition, %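 (about 9 µM by stock and volumes)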; in the data active = inhibition above about 30%; inconclusive = no clear call, values can overlap the other calls;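 note: 0% = vehicle wells and 100% = reference inhibitor control wells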
Target sequence (P9WHJ3 whole entry, looked up): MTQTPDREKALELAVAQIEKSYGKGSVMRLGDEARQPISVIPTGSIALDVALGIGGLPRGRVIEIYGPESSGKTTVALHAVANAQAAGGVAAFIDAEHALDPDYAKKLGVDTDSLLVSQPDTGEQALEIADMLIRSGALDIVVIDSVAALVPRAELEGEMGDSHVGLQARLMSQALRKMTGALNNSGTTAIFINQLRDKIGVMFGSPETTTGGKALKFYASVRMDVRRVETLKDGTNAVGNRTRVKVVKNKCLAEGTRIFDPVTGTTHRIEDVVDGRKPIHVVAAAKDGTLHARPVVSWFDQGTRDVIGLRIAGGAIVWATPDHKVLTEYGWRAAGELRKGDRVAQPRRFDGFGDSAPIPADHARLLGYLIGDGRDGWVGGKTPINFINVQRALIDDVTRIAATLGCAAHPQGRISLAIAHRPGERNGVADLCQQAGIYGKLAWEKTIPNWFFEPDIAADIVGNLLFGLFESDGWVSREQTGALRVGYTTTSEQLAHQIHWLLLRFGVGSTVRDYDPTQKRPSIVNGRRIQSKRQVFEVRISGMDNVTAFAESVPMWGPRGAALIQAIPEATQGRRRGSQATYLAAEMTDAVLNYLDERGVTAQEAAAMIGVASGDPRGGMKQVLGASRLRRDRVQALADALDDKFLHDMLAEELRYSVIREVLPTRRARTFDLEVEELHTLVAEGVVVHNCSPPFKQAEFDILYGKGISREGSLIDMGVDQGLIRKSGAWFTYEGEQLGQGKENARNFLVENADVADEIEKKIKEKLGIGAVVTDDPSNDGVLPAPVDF
Arbovirus anti = arbovirus infection inhibition; arbovirus infection cell-based antiviral screen; inhibition, % at 10 µM; hit rate 0.37% among 200,000; AID 1251;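 active = inhibition from about 30%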;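 note: bluetongue infection of BSR cells; cell survival read as ATP light after 72 h; 0% = infected wells without compound and 100% = uninfected wells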
Arbovirus anti repeat = also measured in Arbovirus anti; calls as there; inhibition, %; measured here: 10K subset replicate screen; many hits read low in the repeat;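 first of two repeat runs on a subset; 0% = infected and 100% = uninfected wells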
Starred values were filed as active, the others as inactive.

What do the screens show for `CCOC(=O)CSc1nc2cc(OCC)ccc2cc1C#N`?
YopH inh: -1; Mtb growth: -2%; Mtb betalactam: 1; RecA intein inh: -1.3; Arbovirus anti: -5

Results for O=C(CNC(=O)c1ccc(-c2ccccc2)cc1)OCc1ccc(Br)cc1 ?
YopH inh: -27; Mtb growth: 6%; RecA intein inh: 1.0; Arbovirus anti: -11

Results for COc1cc(-n2nnnc2SC)c(OC)cc1Cl ?
Mtb growth: -2%; Mtb betalactam: 3; RecA intein inh: -1.3; Arbovirus anti: 3

Results for CC(Cc1ccccc1)N1C(=O)c2cccc([N+](=O)[O-])c2C1=O (centres undefined) ?
Mtb betalactam: 4; RecA intein inh: -3.3

What do the screens show for `CC(NC(=O)Cn1nc(C(=O)O)c2ccccc2c1=O)C12CC3CC(CC(C3)C1)C2` (centres undefined)?
Mtb growth: -6%; Mtb betalactam: 1; RecA intein inh: 0.6; Arbovirus anti: -6

What do the screens show for `Cc1nc(Nc2c(Cl)cccc2Cl)sc1C(=O)Nc1ccccc1`?
YopH inh: -23; Mtb growth: 10%; Mtb betalactam: 2; RecA intein inh: 8.6; Arbovirus anti: -17

How did CCN(CC)CCNC(=O)c1ccc(NC(=O)c2cccc(S(=O)(=O)Nc3ccc(C)cc3)c2)cc1 do in these assays?
Mtb growth: 4%; Mtb betalactam: -8; RecA intein inh: 0.3; Arbovirus anti: -10

Results for CCCc1nnc(SCC(=O)Nc2ccc(Cl)cc2Cl)o1 ?
Mtb betalactam: 3; RecA intein inh: -1.4

Results for Cc1ccc(OCCSc2ncccn2)c(C)c1 ?
Mtb growth: 0%; RecA intein inh: 5.0; Arbovirus anti: 7

How did Cc1sc2nc(CN3CCOCC3)nc(N3CCOCC3)c2c1C do in these assays?
YopH inh: -11; Mtb growth: -5%; Mtb betalactam: 7; RecA intein inh: -2.2; Arbovirus anti: 5

Results for O=C(CSc1nnc(-c2ccc(S(=O)(=O)N3CCCC3)cc2)o1)NCc1ccccc1 ?
YopH inh: -24; Mtb growth: -4%; Mtb betalactam: -3; RecA intein inh: -1.8; Arbovirus anti: -8

What do the screens show for `CC(C)N=C1SCC(C)(/C=N/O)S1` (centres undefined)?
YopH inh: -39; Mtb growth: 5%; Mtb betalactam: -3; RecA intein inh: -0.8; Arbovirus anti: 2

Results for CC(C)Cn1cnc2c(=O)oc3ccccc3c21 ?
YopH inh: -2; Mtb growth: -8%; Mtb betalactam: -12; RecA intein inh: -2.0; Arbovirus anti: 3

How did CCN(CC)c1ccc(NC(=O)c2cc3ccccc3o2)c(C)c1 do in these assays?
YopH inh: 1; Mtb growth: 2%; Mtb betalactam: 55; RecA intein inh: -1.8; Arbovirus anti: 11

Results for CCc1ccc(-c2nc(SCC(=O)N3CCOCC3)n[nH]2)cc1 ?
Mtb growth: -5%; Mtb betalactam: -4; RecA intein inh: 1.3; Arbovirus anti: 0

How did CC/C(=N\NC(=O)c1c(C)nc2ccccn12)c1ccc(Cl)cc1 do in these assays?
Mtb betalactam: 2; RecA intein inh: -3.7

How did C=CCCC(=O)Nc1ccc(Br)cn1 do in these assays?
Mtb growth: 4%; Mtb betalactam: -2; RecA intein inh: -3.5; Arbovirus anti: -20

How did Cc1occc1C(=O)N1CCCC(N2CCN(c3ccccc3F)CC2)C1 (centres undefined) do in these assays?
Mtb betalactam: -13; RecA intein inh: -2.2

How did Cc1ccc(NC(=O)C2CC(O)CN2C(=O)Oc2ccccc2)c(C)c1 (centres undefined) do in these assays?
Mtb betalactam: -3; RecA intein inh: 1.4

How did Cc1ccc(-c2nc3ncccn3c2Nc2ccc3c(c2)OCCO3)cc1 do in these assays?
YopH inh: -20; Mtb growth: 0%; Mtb betalactam: 5; RecA intein inh: -1.8; Arbovirus anti: -1

Results for CN(C)C(CNC(=O)c1ccc(S(=O)(=O)NCc2ccco2)cc1)c1ccccc1 (centres undefined) ?
YopH inh: -28; Mtb growth: -4%; Mtb betalactam: 10; RecA intein inh: -0.9; Arbovirus anti: 4

Results for O=[N+]([O-])c1cc(C(F)(F)F)ccc1NCCc1ccccn1 ?
Mtb betalactam: 0; RecA intein inh: -1.5

What do the screens show for `COc1cccc(N2C(=O)/C(=C/c3ccc(C)o3)C(=O)NC2=S)c1`?
Mtb betalactam: 4; RecA intein inh: -1.4

Results for Cc1cccc(N2CCN(C(=O)COCc3cc(-c4ccc5c(c4)OCO5)on3)CC2)c1C ?
Mtb betalactam: inconclusive; RecA intein inh: 3.4

How did Cn1c(SCCCC(=O)c2ccc(Br)cc2)nnc1-c1ccncc1 do in these assays?
YopH inh: -15; Mtb betalactam: -2; RecA intein inh: 0.0; Arbovirus anti: 3

What do the screens show for `O=C(COc1ncnc2ccccc12)NCCC1=CCCCC1`?
YopH inh: -39; Mtb growth: -1%; Mtb betalactam: -23; RecA intein inh: -0.2; Arbovirus anti: -4

What do the screens show for `CCOC(=O)c1ccc(NC(=O)c2cc(C)nn2-c2ccccc2)cc1`?
Mtb betalactam: 12; RecA intein inh: 5.2

What do the screens show for `CCn1c(=S)[nH]c2sc3c(c2c1=O)CCCC3`?
Mtb betalactam: 0; RecA intein inh: -5.2

How did COc1ccc(C2=NO[C@@H]3C(=O)N(c4ccc5c(c4)OCCO5)C(=O)[C@H]23)cc1OC do in these assays?
YopH inh: -2; Mtb growth: -9%; Mtb betalactam: -22; RecA intein inh: 11; Arbovirus anti: 0

Results for O=C(NC1CCN(Cc2ccc(Cl)c(Cl)c2)CC1)c1ccccc1 ?
Mtb betalactam: -8; RecA intein inh: 2.8

How did CC(NC(=O)/C(C#N)=C1\N=C(NC(=O)c2ccco2)c2ccccc21)c1ccccc1 (centres undefined) do in these assays?
Mtb growth: 1%; Mtb betalactam: -2; RecA intein inh: 0.5

Results for CCCOc1ccc(N2CC(C(=O)Nc3ccc4c(c3)OCO4)CC2=O)cc1 (centres undefined) ?
YopH inh: -8; Mtb growth: -4%; Mtb betalactam: -12; RecA intein inh: 0.8; Arbovirus anti: -8; Arbovirus anti repeat: -6

What do the screens show for `C=CCn1c(CCn2c3ccccc3c3ccccc32)n[nH]c1=S`?
YopH inh: -4; Mtb growth: 3%; Mtb betalactam: 1; RecA intein inh: 1.6; Arbovirus anti: 2

How did Cc1nc(P(=O)(c2ccccc2)c2ccccc2)c(N2CCOCC2)o1 do in these assays?
YopH inh: 16; Mtb growth: -2%; Mtb betalactam: -14; RecA intein inh: -3.2; Arbovirus anti: 4

What do the screens show for `O=C(Cc1ccc(NC2=NC3CS(=O)(=O)CC3S2)cc1)Nc1ccc(F)cc1` (centres undefined)?
Mtb betalactam: 2; RecA intein inh: -2.8

What do the screens show for `CN(C)/C=C1\C(=O)Oc2ccccc2C1=O`?
Mtb betalactam: 4; RecA intein inh: -1.5

How did CN1C(=O)CC(N2CCN(C(=O)CN3CCCC3)CC2)C1=O (centres undefined) do in these assays?
YopH inh: -23; Mtb growth: -4%; Mtb betalactam: -26; RecA intein inh: 0.8; Arbovirus anti: -4

Results for Cc1ccc(NC(=O)COC(=O)c2cc(C)nc3ccccc23)c([N+](=O)[O-])c1 ?
YopH inh: -27; Mtb growth: 0%; Mtb betalactam: -4; RecA intein inh: -0.8; Arbovirus anti: 1

What do the screens show for `COc1cc2c(cc1OC)CN(CC(=O)Nc1cccc([N+](=O)[O-])c1)CC2`?
Mtb betalactam: 0; RecA intein inh: -49

How did CC1(C(=O)N/N=C/c2c(F)c(F)c(F)c(F)c2F)CC1(Cl)Cl (centres undefined) do in these assays?
Mtb betalactam: -7; RecA intein inh: 10

Results for COc1ccc(-c2nc(CSCC(=O)NCc3ccco3)c(C)o2)cc1 ?
YopH inh: -19; Mtb growth: -8%; Mtb betalactam: 1; RecA intein inh: 6.2; Arbovirus anti: 6

Results for Cc1cccc(NC(=O)c2nc[nH]c2C(=O)N[C@@H](Cc2ccccc2)C(=O)OC(C)(C)C)c1 ?
Mtb growth: 59%; Mtb betalactam: 96; RecA intein inh: 2.2

What do the screens show for `CCOCCCNC(=O)C(c1ccc(OC)cc1)N(Cc1ccc2c(c1)OCO2)C(=O)c1ccccc1O` (centres undefined)?
Mtb growth: 0%; Mtb betalactam: -15; RecA intein inh: -1.4; Arbovirus anti: -4

How did CCNC(=S)N1CCNC(=O)C1CC(=O)OC (centres undefined) do in these assays?
YopH inh: 0; Mtb growth: 6%; Mtb betalactam: 4; RecA intein inh: -0.5; Arbovirus anti: 5

What do the screens show for `Cc1occc1C(=O)NNC(=O)Nc1ccc(Cl)c(Cl)c1`?
YopH inh: -22; Mtb growth: -5%; Mtb betalactam: 1; RecA intein inh: 2.6; Arbovirus anti: 0

What do the screens show for `COc1cccc(-n2c(SC)nnc2-c2c[nH]c3ccccc23)c1`?
YopH inh: -27; Mtb growth: 9%; Mtb betalactam: 0; RecA intein inh: 2.0; Arbovirus anti: -6

How did COc1ccc(CCN(C)C(=O)c2cncc(Br)c2)cc1OC do in these assays?
Mtb betalactam: 1; RecA intein inh: 4.9

How did COc1cccc(-c2noc(-c3ccc(Br)o3)n2)c1 do in these assays?
Mtb growth: -7%; Mtb betalactam: -8; RecA intein inh: -2.9; Arbovirus anti: 1

How did O=C1CCCN1c1ccc(CNS(=O)(=O)c2ccc(F)cc2)cc1 do in these assays?
YopH inh: -11; Mtb growth: -4%; Mtb betalactam: -5; RecA intein inh: 3.9; Arbovirus anti: -5

Results for O=C(Cn1cc(C(=O)C2CC2)c2ccccc21)NCc1ccc2c(c1)OCO2 ?
YopH inh: 0; Mtb growth: 2%; Mtb betalactam: 1; RecA intein inh: -0.5; Arbovirus anti: -3

What do the screens show for `CCc1cccc(C)c1NC(=O)CSc1nnc(C)o1`?
Mtb betalactam: 1; RecA intein inh: -2.8

How did Cn1cc(-c2cccc(C(F)(F)F)c2)cc(C#N)c1=O do in these assays?
Mtb betalactam: -3; RecA intein inh: -2.8

What do the screens show for `COc1cc(O)ccc1C(=O)CCc1ccc(O)cc1`?
Mtb betalactam: 4; RecA intein inh: 2.0

How did Cc1sc(NC(=O)c2ccco2)c(CN2CCN(c3ccc(F)cc3)CC2)c1C do in these assays?
YopH inh: -26; Mtb growth: 1%; Mtb betalactam: -5; RecA intein inh: -4.0; Arbovirus anti: 4

Results for COc1ccccc1NC(=O)Nc1cc(C(C)(C)C)nn1C ?
Mtb growth: -12%; Mtb betalactam: 1; RecA intein inh: 0.2

What do the screens show for `CC(=O)c1cccc(N2C(=NC(=O)COc3ccccc3)SC3CS(=O)(=O)CC32)c1` (centres undefined)?
Mtb betalactam: -1; RecA intein inh: -0.5

How did COc1ccc2ccccc2c1CNCCc1ccccc1 do in these assays?
Mtb betalactam: 5; RecA intein inh: -1.3

What do the screens show for `CCc1nnc(NC(=O)c2ccc(S(=O)(=O)N(CC(C)C)CC(C)C)cc2)o1`?
YopH inh: -17; Mtb growth: 42%; Mtb betalactam: 55; Arbovirus anti: -4

How did CCOC(=O)C1=C(CC)Nc2ccccc2N=C1NC(=O)c1ccc(S(=O)(=O)N2CCCC2)cc1 do in these assays?
Mtb growth: 2%; Mtb betalactam: 0; RecA intein inh: 1.3; Arbovirus anti: 15

Results for CCn1c(SCC(=O)Nc2nccs2)nnc1-c1ccccn1 ?
Mtb betalactam: 4; RecA intein inh: -3.5

How did NC1=NC[C@H](Cc2ccc(O)cc2)N1CCCCC1CCCCC1 do in these assays?
Mtb growth: 5.3µM*; Mtb betalactam: 100; RecA intein inh: 5.9

How did COc1ccc(OC)c(S(=O)(=O)N2CCC(C(=O)NC(C)c3ccccc3)CC2)c1 (centres undefined) do in these assays?
YopH inh: -53; Mtb growth: -6%; Mtb betalactam: -8; Arbovirus anti: -2

What do the screens show for `O=C(O)c1cc2c(cc1NC(=O)c1c(F)cccc1Cl)OCCCO2`?
Mtb betalactam: 0; RecA intein inh: -1.6

How did O=S(=O)(Nc1nc2ccccc2[nH]1)c1ccc(Cl)cc1 do in these assays?
YopH inh: -31; Mtb growth: -5%; Mtb betalactam: 8; RecA intein inh: 0.5; Arbovirus anti: -7

How did C/C(=N\Nc1nc(N2CCOCC2)nc(N2CCOCC2)n1)c1ccc([N+](=O)[O-])cc1 do in these assays?
Mtb growth: 1%; Mtb betalactam: -9; RecA intein inh: -1.6; Arbovirus anti: -2

Four entries drawn at random from the list so far, as already listed:
How did O=C1CCCN1c1ccc(CNS(=O)(=O)c2ccc(F)cc2)cc1 do in these assays?
YopH inh: -11; Mtb growth: -4%; Mtb betalactam: -5; RecA intein inh: 3.9; Arbovirus anti: -5

How did COc1ccc(CCN(C)C(=O)c2cncc(Br)c2)cc1OC do in these assays?
Mtb betalactam: 1; RecA intein inh: 4.9

What do the screens show for `CCOCCCNC(=O)C(c1ccc(OC)cc1)N(Cc1ccc2c(c1)OCO2)C(=O)c1ccccc1O` (centres undefined)?
Mtb growth: 0%; Mtb betalactam: -15; RecA intein inh: -1.4; Arbovirus anti: -4

How did COc1ccc2ccccc2c1CNCCc1ccccc1 do in these assays?
Mtb betalactam: 5; RecA intein inh: -1.3

Only part of the results is shown; the hit share may differ from the screen's.
